# Hsc70 ATP site: Hsc70 inhibitors, probe displacement, primary screen, biochemical, fluorescence polarization (AID 568); Hsc70 fluorescence polarization, probe displacement; higher % means a stronger effect; strong numbers were not always called active; displacement, % at 20 µM, or IC50 in µM where a hit was titrated; 83,000 tested, under 10 active;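 active = displacement above 50% without optical interference and an IC50 on retest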;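 note: ATPase domain with a fluorescein-tagged ATP probe; 0% = vehicle and 100% = excess ADP; read after one hour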
# WNV NS2B-NS3 inh: blocks West Nile virus NS2B-NS3 protease activity; P06935; WNV NS2B-NS3 protease, fluorogenic substrate Ex360/Em465; active compounds read low; z-score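 (tested at a level between 10 and 100 µM)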; actives 0.18% (n = 65,000); AID 577;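 active = z-score at -3 or under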;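 note: score is relative to mean and spread of the compound wells of a plate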
# Target sequence (P06935 1371-1501 limits assumed): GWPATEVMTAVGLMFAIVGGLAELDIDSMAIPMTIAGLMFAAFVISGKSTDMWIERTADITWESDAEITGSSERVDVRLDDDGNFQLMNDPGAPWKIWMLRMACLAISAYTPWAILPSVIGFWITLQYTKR
# Target sequence (P06935 1502-1679 limits assumed): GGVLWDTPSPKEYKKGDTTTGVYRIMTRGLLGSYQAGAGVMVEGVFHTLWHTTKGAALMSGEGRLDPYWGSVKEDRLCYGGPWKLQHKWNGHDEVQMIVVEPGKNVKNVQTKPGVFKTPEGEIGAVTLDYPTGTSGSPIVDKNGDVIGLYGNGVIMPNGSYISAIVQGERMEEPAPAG
# MT1-MMP reporter: MT1-MMP gene expression reporter suppression – cell-based, luciferase reporter, luminescence (AID 618) | calls from a first round at 10 µM; hits with a dose series show EC50 in µM | actives 0.62% (n = 87,000) | MT1-MMP promoter luciferase reporter cells, luminescence;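 active = over half of the reporter light lost at 10 µM or EC50 under 50 µM; inactive = the rest and hits that failed the dose series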;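 note: actives suppress MT1-MMP promoter-driven transcription so potencies describe inhibitors; HT1080 fibrosarcoma cells; overnight exposure; toxic or luciferase-blocking compounds were not removed from the actives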
# * = called active by the depositor; i = inactive; . = not tested or not shown. This is a subset; rates above refer to the full screens.
SMILES,Hsc70 ATP site,WNV NS2B-NS3 inh,MT1-MMP reporter
O=C(c1ccco1)N1CCN(c2ncnc3c2[nH]c2ccccc23)CC1,0.7%,0.34,i
CCCn1c(SCC(=O)N2CCN(S(=O)(=O)c3ccc(Cl)cc3)CC2)n[nH]c1=O,-0.4%,-1.4,i
O=C(COc1ncnc2ccccc12)NC1CCS(=O)(=O)C1 (stereo unspecified),-0.6%,0.36,i
O=C1CCCc2nc(N3CCN(C(c4ccccc4)c4ccccc4)CC3)ncc21,-8.8%,0.25,i
CCN1CCCC1CNC(=O)C1c2ccccc2C(=O)N(CCOC)C1c1ccc(F)cc1 (stereo unspecified),-9.4%,-1.1,i
CCN(CC)S(=O)(=O)c1cc(C(=O)n2cccn2)c(Cl)cc1Cl,3.0%,0.85,i
COCCn1nnnc1C(c1cc2cc(OC)ccc2[nH]c1=O)N1CCC(Cc2ccccc2)CC1 (stereo unspecified),-2.6%,-0.3,i
CCN1CCN(C(c2cccs2)C(C)NS(=O)(=O)c2ccc(F)cc2)CC1 (stereo unspecified),-2.2%,-0.98,i
COc1ccccc1C(c1nnnn1C(C)(C)C)N1CCN(Cc2ccncc2)CC1 (stereo unspecified),-5.7%,-0.85,i
Brc1cccc(/C=N\n2cnnc2)c1,-0.7%,0.28,i
O=C(Nc1ccc(Cc2ccc(NC(=O)C3CC3)c(O)c2)cc1O)C1CC1,2.6%,-0.34,i
COc1ccnc(CSC(N)=Nc2ccc(F)cc2)c1,4.1%,.,i
CC(=O)c1cccc(NC(=O)c2cc(-c3ccc(F)cc3)on2)c1,1.6%,-0.41,i
O=C(Nc1ccccc1)N(C1=NCCC1)c1ccc(OC(F)F)cc1,1.7%,-0.62,i
CCC(c1nnnn1CCOC)N(Cc1cc2c(C)cc(C)cc2[nH]c1=O)CC1CCCO1 (stereo unspecified),7.9%,.,i
Cc1c(-c2ccccc2)sc(Br)c1C(=O)N1CCOCC1,1.6%,.,i
O=S(=O)(Nc1nc2ccccc2nc1NCc1ccco1)c1cccs1,0.7%,0.32,i
O=C(O)CC(C(=O)N(c1ccccc1)c1ccccc1)N1CCOCC1 (stereo unspecified),4.0%,-0.35,i
COc1ccccc1CNC(=O)c1cnccn1,4.5%,.,i
Cc1ccc2oc(-c3cccc(NC(=O)c4ccc(Br)o4)c3)nc2c1,1.6%,.,i
CCOC(=O)C1CCCN(Cc2cccs2)C1 (stereo unspecified),1.6%,.,i
O=C1CCC(C(=O)OCc2cc(Cl)ccc2OC(F)F)N1 (stereo unspecified),4.1%,0.44,i
CC1CCCC(C)N1C(=O)CSc1nnnn1-c1cccc2c1CCCC2 (stereo unspecified),-0.2%,.,i
Cc1cc(-c2nc3ncccc3o2)ccc1NC(=O)CC(C)C,5.4%,0.68,i
O=C1c2ccccc2C(Nc2ccc3nc(-c4cccnc4)[nH]c3c2)N1Cc1ccco1 (stereo unspecified),1.5%,0.12,i

# Limited to WNV NS2B-NS3 inh, for 2 of the compounds above:
Molecule,WNV NS2B-NS3 inh
COCCn1nnnc1C(c1cc2cc(OC)ccc2[nH]c1=O)N1CCC(Cc2ccccc2)CC1 (stereo unspecified),-0.3
CCN1CCN(C(c2cccs2)C(C)NS(=O)(=O)c2ccc(F)cc2)CC1 (stereo unspecified),-0.98

# Ordered by heavy-atom count (descending): part of the list above
SMILES,Hsc70 ATP site,WNV NS2B-NS3 inh,MT1-MMP reporter
CCC(c1nnnn1CCOC)N(Cc1cc2c(C)cc(C)cc2[nH]c1=O)CC1CCCO1 (stereo unspecified),7.9%,.,i
O=C1CCCc2nc(N3CCN(C(c4ccccc4)c4ccccc4)CC3)ncc21,-8.8%,0.25,i
O=C(Nc1ccc(Cc2ccc(NC(=O)C3CC3)c(O)c2)cc1O)C1CC1,2.6%,-0.34,i
O=S(=O)(Nc1nc2ccccc2nc1NCc1ccco1)c1cccs1,0.7%,0.32,i
O=C(Nc1ccccc1)N(C1=NCCC1)c1ccc(OC(F)F)cc1,1.7%,-0.62,i
Cc1c(-c2ccccc2)sc(Br)c1C(=O)N1CCOCC1,1.6%,.,i

# Following part.
SMILES,Hsc70 ATP site,WNV NS2B-NS3 inh,MT1-MMP reporter
CCOC(=O)C1CCC2(CC1)C(C#N)=C(N)Oc1n[nH]c(C)c12 (stereo unspecified),5.1%,.,i
O=C(Cc1cccs1)NCc1ccco1,4.0%,-0.27,i
CCOc1ccc(C2/C(=C(/O)c3ccccc3)C(=O)C(=O)N2CCCN(C)C)cc1OC (stereo unspecified),-3.0%,0.07,i
Cc1nnc(NC(=O)CSc2nc3ccccc3o2)s1,-0.2%,.,i
Cc1cc(=O)[nH]c(N2CCCC2)n1,-3.4%,-0.52,i
COc1ccc(NC(=O)Nc2ncccc2C)cc1,-0.2%,.,i
CC(=O)C1=C(O)C(=O)N(Cc2ccccc2)C1c1ccccc1F (stereo unspecified),3.5%,.,i
CC(=O)c1ccc(NC(=O)N2CCN(c3cccc(Cl)c3)CC2)cc1,7.0%,-0.65,i
COC(=O)c1cccc(-n2[nH]nnc2=S)c1,-2.1%,.,i
CN1CCCN(C(=O)c2cc(=O)[nH]c3ccccc23)c2nc3ccccc3nc21,3.4%,-0.68,i
CN1CCN(C2=C(Cl)C(=O)N(c3ccc(Cl)c(Cl)c3)C2=O)CC1,0.6%,-0.14,i
Cc1cc(Nc2ccccc2C(=O)O)nc2nc3ccccc3c(=O)n12,6.1%,0.93,i
CN(c1ccccc1C(N)=O)S(=O)(=O)c1ccccc1,0.8%,-1.2,i
C/C(=N/Oc1nc(C)cc(C)n1)c1ccc(F)cc1,3.1%,.,i
C=C1CSc2nc(=O)c3c(C)c(C)sc3n21,2.4%,-0.14,i
Cc1ccc(C(c2nnnn2C2CCCC2)N2CCN(c3nc4ccccc4s3)CC2)cc1 (stereo unspecified),-0.6%,.,i
O=S(=O)(c1cccc(C(F)(F)F)c1)N1CCC(O)(c2cccnc2)CC1,7.7%,-1.2,i
Cc1cc(NC(=O)CN2CCCCC2C)no1 (stereo unspecified),1.1%,.,i
CC(=O)N(CN1C(=O)c2ccccc2C1=O)c1cccc(C)c1,-1.6%,1.2,i
COc1ccc(CNc2nc3ccccc3n2CCN2CCCCC2)c(OC)c1,-4.6%,1.1,i
CCCc1nc(SCC(=O)N2CCCC2)c2ccccc2n1,0.9%,0.15,i
O=C(Nc1ccc2c(c1)oc1ccccc12)C1CC1,-1.6%,-1.5,i
O=C(NCC1CCN(c2ccc(S(=O)(=O)N3CCOCC3)cc2)CC1)c1cccc(Cl)c1,4.6%,.,i
CCc1ccc2oc(-c3cc(N)cc(C)c3O)nc2c1,-10%,0.59,i
CC(C)c1nc(=S)n(-c2ccccc2)[nH]1,-6.0%,-0.07,i
# Continuation.
SMILES,Hsc70 ATP site,WNV NS2B-NS3 inh,MT1-MMP reporter
CCOc1ccc(CCNC(=O)C(CC)n2nc(C)n3c(cc4sccc43)c2=O)cc1OCC (stereo unspecified),1.5%,1.2,i
Cc1csc(NC(=O)c2cc3c(s2)CCCC3)n1,3.6%,.,1.3µM*
CCSc1nc2c(c(=O)[nH]1)C(C(C)C)C(C#N)=C(N)O2 (stereo unspecified),3.5%,0.68,i
O=C(CSc1nnc(-c2cccnc2)n1Cc1ccco1)c1ccc(Cl)c(Cl)c1,-12%,0.88,i
O=S(=O)(c1ccc(Br)s1)N1CCN(c2ncccn2)CC1,-0.2%,.,i
CC(=O)Nc1ccccc1NC(=O)C(F)(F)F,-4.6%,-0.64,i
NC12CC3CC(C1)CC(O)(C3)C2,-0.7%,-0.44,i
COc1cc(CN2CCN(c3ccccc3F)CC2)cc(OC)c1O,-0.9%,0.71,i
O=C(CCCCn1c(=O)c2ccccc2n(CC(=O)Nc2cccc(F)c2)c1=O)NCc1ccco1,1.1%,-1.3,i
Nc1ccc(C(=O)Nc2ccccc2C(=O)O)cc1,1.5%,.,i
CC(C)CN(CC(C)C)c1nc(N)c(C#N)c(CC#N)c1C#N,0.2%,-1.5,i
COc1ccc(N(CC(=O)NCCSc2ccccn2)S(C)(=O)=O)cc1,3.4%,.,i
NC(=O)CN1CCOCCOCCN(CC(N)=O)CCOCC1,1.3%,.,i
COC(=O)CCC(=O)Nc1nc(-c2ccccc2)cs1,2.3%,0.82,i
CCC(C)c1ccc(O)c(N)c1 (stereo unspecified),-8.4%,0.39,i
COc1ccc(OC)c(C(c2nnnn2C(C)(C)C)N2CCc3ccccc3C2)c1 (stereo unspecified),-2.9%,1.2,i
CC(C)C(c1nnnn1Cc1ccccc1)N(CCCO)Cc1cc2cc3c(cc2[nH]c1=O)OCO3 (stereo unspecified),16%,1.3,i
Cc1c(N2C(=O)CSC23C(=O)Nc2ccccc23)c(=O)n(-c2ccccc2)n1C (stereo unspecified),0.2%,-0.54,i
CCOC(=O)c1c(-c2ccc(OC)cc2)nc2nonc2c1N,1.2%,1.6,i
O=C(Oc1ccc2ccc(OC(=O)N3CCOCC3)cc2c1)N1CCOCC1,4.0%,0.29,i
CCOC(=O)N1CCN(c2nc(C)cc(C(F)(F)F)n2)CC1,-36%,0.22,i
O=C(NCCc1ccccc1)C1CCCN1S(=O)(=O)c1ccc(F)cc1 (stereo unspecified),-2.5%,.,i
CCOC(=O)c1c(C)[nH]c(C(=O)COC(=O)c2cn(CC)c3nc(C)ccc3c2=O)c1C,2.0%,0.33,i
Cc1ccc(OCCn2c(C)c(/C=N/n3cnnc3)c3ccccc32)cc1,0.6%,0.55,i
CCOC(=O)N1CCN(c2nc(C(F)(F)F)nc3c(C)cc(C)cc23)CC1,0.8%,-0.97,i
# Carrying on.
SMILES,Hsc70 ATP site,WNV NS2B-NS3 inh,MT1-MMP reporter
C[C@]12C[C@H](O)[C@H]3[C@@H](CCC4=CC(=O)CC[C@@]43C)[C@@H]1CC[C@@H]2C(=O)CO,3.0%,0.18,i
CCOc1ccc2nnc(-c3ccc(Br)cc3)n2n1,3.4%,.,i
CC1CCc2c(sc(NS(=O)(=O)c3ccccc3)c2C(=O)OC(C)C)C1 (stereo unspecified),0.3%,.,i
COc1cc([C@@H]2[C@H]3CNCC=C3C(C#N)=C(N)C2(C#N)C#N)ccc1OC(C)C,-24%,-1.2,i
CNC(=O)CN(c1cccc2ccccc12)S(C)(=O)=O,2.5%,-0.4,i
COc1ccc(S(=O)(=O)NCCSc2ccc(Cl)cc2)cc1OC,4.5%,.,i
Oc1ccccc1Nc1nc(NCC2CCCO2)c2ccccc2n1 (stereo unspecified),-8.9%,-0.78,i
C/C(=N\O)c1c(C)c2ccccc2n1C,1.8%,-0.32,i
Cc1ccc(N2/C(=N/c3nc(C)cc(C)n3)NC(=O)CC2C(=O)O)cc1 (stereo unspecified),3.8%,.,i
Cc1occc1C(=O)Nc1ccccc1NC(=O)c1ccoc1C,0.9%,-2,i
CCOC(=O)c1cc(OC(=O)c2cccnc2)n(-c2ccccc2)n1,-0.7%,0.67,i
COc1cc(S(=O)(=O)N(Cc2cccs2)CC2CCCO2)ccc1-n1cnnn1 (stereo unspecified),-3.1%,-1,i
O=S(=O)(NCC1OCCc2ccccc21)c1ccccc1 (stereo unspecified),-0.1%,.,i
COC(=O)CSc1nnc(-c2ccc(NS(=O)(=O)c3ccccc3)cc2)o1,3.1%,0.53,i
O=C(Cn1ncc2c(=O)oc3ccccc3c21)N(Cc1ccco1)C1CCCCC1,0.0%,2,i
c1cc(-c2nc3ccccc3o2)nc(-c2nc3ccccc3o2)c1,-5.2%,0.56,i
Cc1csc2nc(CNC(=O)c3ccco3)cn12,3.1%,-0.23,i
O=C(c1ccc(CSCc2ccccc2F)o1)N1CCN(c2ccc(N3CCOCC3)nn2)CC1,5.2%,0.25,i
COc1ccc(C(=O)NCCn2cc(SCC(=O)Nc3cc(C)on3)c3ccccc32)cc1OC,-6.9%,1,i
COc1cccc(C2CC(c3cccc(OC)c3)n3nc(N)nc3N2)c1 (stereo unspecified),3.9%,0.23,i
c1cc(-c2nc3cc(Oc4ccc5oc(-c6ccncc6)nc5c4)ccc3o2)ccn1,-5.1%,0.14,i
CSc1nnc(CNC(=O)c2ccccc2)n1-c1ccc(F)cc1,3.2%,-0.99,i
CCCCN(C(=O)Cn1nnc2ccccc21)C(C(=O)NCCOC)c1ccc(OC)cc1OC (stereo unspecified),-2.0%,0.21,i
CCCCC[C@H](O)/C=C/[C@@H]1[C@@H](CCCCCCC(=O)O)[C@@H](O)C[C@H]1O,-2.8%,-0.39,i
COc1cccc(-c2nc(N3CC(C)CC(C)C3)c3ccccc3n2)c1O (stereo unspecified),-4.7%,-0.2,i
CC(=O)c1cc(-c2ccc(F)cc2)n(CC(=O)NCc2cccs2)c1C,1.2%,1.1,i
CC(=O)Nc1ccc(S(=O)(=O)Nc2nc3ccccc3s2)cc1,-1.2%,.,i
CC(=O)Nc1ccc(SCC(=O)OCC(=O)NC(=O)NCc2ccco2)cc1,2.6%,0.68,i
O=C(Oc1ccc(N(Cc2cccs2)C2=NS(=O)(=O)c3ccccc32)cc1)c1ccccc1Cl,0.3%,.,i

# Shown field by field: 4 of the compounds above.
Oc1ccccc1Nc1nc(NCC2CCCO2)c2ccccc2n1 (stereo unspecified)
  Hsc70 ATP site = -8.9%; WNV NS2B-NS3 inh = -0.78; MT1-MMP reporter = i

C/C(=N\O)c1c(C)c2ccccc2n1C
  Hsc70 ATP site = 1.8%; WNV NS2B-NS3 inh = -0.32; MT1-MMP reporter = i

Cc1ccc(N2/C(=N/c3nc(C)cc(C)n3)NC(=O)CC2C(=O)O)cc1 (stereo unspecified)
  Hsc70 ATP site = 3.8%; WNV NS2B-NS3 inh = .; MT1-MMP reporter = i

Cc1occc1C(=O)Nc1ccccc1NC(=O)c1ccoc1C
  Hsc70 ATP site = 0.9%; WNV NS2B-NS3 inh = -2; MT1-MMP reporter = i
